VDR inh – Inhibitors of the vitamin D receptor (VDR): qHTS; Vitamin D3 receptor (Homo sapiens), P11473; VDR-SRC2-3 peptide fluorescence polarization, 2 h; Potency, µM, for inactives: max response, negative = inhibition, actives largely listed as inhibitors; hit rate 0.93% among 400,000; AID 504847, 2011; active = well fitted inhibition curve with a large enough effect; inconclusive = small, poorly fitted or top-dose-only effect, or another doubt; inactive = no such curve, though single readings can be large or run the other way; note: series mostly up to about 120 µM
Target sequence (P11473 whole entry, looked up): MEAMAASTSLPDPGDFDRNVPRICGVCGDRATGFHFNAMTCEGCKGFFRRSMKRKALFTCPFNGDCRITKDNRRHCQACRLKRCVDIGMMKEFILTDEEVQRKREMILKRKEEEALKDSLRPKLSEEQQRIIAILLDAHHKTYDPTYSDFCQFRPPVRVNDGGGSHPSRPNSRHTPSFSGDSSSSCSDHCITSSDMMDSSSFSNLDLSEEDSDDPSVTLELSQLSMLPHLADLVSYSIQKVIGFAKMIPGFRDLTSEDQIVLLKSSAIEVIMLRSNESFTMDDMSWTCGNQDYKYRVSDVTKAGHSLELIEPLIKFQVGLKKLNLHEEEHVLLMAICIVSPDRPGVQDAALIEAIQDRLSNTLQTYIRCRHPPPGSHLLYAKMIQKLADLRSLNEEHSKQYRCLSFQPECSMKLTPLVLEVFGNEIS
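Fluorescence polarization assay of small-molecule disruption of VDR binding to coregulator peptide SRC2-3. Compounds and controls pin-transferred, then read after 2 h incubation at ambient room temperature.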
* hit, by the source's call; ? = inconclusive; & = joins results of further samples; [ ] = another dose, or the depositor's remark. % is set by controls: 0 for no effect and ±100 for the full control effect; potency is the fitted concentration of half-maximal effect.

VDR inh	molecule
-22%	CCCc1cc(C(=O)OC)c(NC(=O)CCCC(=O)O)s1
8%	CCOC(=O)C1CCN(C(=O)NC23CC4CC(CC(C4)C2)C3)CC1
-14%	CCOC(=O)CSc1nnc(SCCN2C(=O)c3ccccc3C2=O)s1
6%	O=C(O)c1ccccc1NCN1C(=O)C2CC=C(Cl)CC2C1=O (stereo not drawn)
19%	COc1cccc(CNC(=O)c2ccc(NC(=O)CC3SC(N4CCCCC4)=NC3=O)cc2)c1 (stereo not drawn)
-1%	Cc1ccc(Nc2nc(-c3ccc(S(=O)(=O)N4CCCC4)cc3)cs2)cc1C
-7%	O=C(Nc1nnc(CC2=CCCCC2)s1)Nc1ccccc1F
-16%	O=C(NC1CCCCC1)C(Cc1ccccc1)NS(=O)(=O)c1cccs1 (stereo not drawn)
-8%	CCCCN(Cc1cc2cccc(C)c2[nH]c1=O)S(C)(=O)=O
3%	CCc1cccc(NC(=O)CCS(=O)(=O)c2ccc3nc(C)sc3c2)c1
10%	Cc1ccc(-c2onc(C)c2C)cc1S(=O)(=O)N1CCc2ccccc21
-1%	Cc1cc(-c2nnc3sc(-c4ccc(Cl)cc4Cl)nn23)n[nH]1
5%	CC(=O)c1[nH]c(C)c(C(=O)NCCc2ccc(C)cc2)c1C
?	COc1cc(C(=S)N2CCOCC2)ccc1OC(=O)c1cc(OC)c(OC)c(OC)c1
0%	Cc1cc(NC(=O)c2ccc(F)cc2)n(-c2ccccn2)n1
6%	COCc1nnc(SCC(=O)NC(C)c2ccccc2)n1-c1ccccc1 (stereo not drawn)
-15%	CCCCSCc1[nH]c(=O)[nH]c1C(=O)CCCCC(=O)OCC
-1%	CC(C)CCn1c(CN2CCN(C(=O)c3ccco3)CC2)nc2c1c(=O)n(C)c(=O)n2C
22%	COc1ccc(NC(=O)/C(C#N)=C/c2ccc(Br)o2)cc1
12%	COC(=O)c1c(NC(=O)CSc2nc(-c3ccco3)cc(C(F)(F)F)n2)sc2c1CCCC2
16%	O=C(N/N=C\c1cc2c(cc1[N+](=O)[O-])OCO2)c1cccs1
2%	CCC(=O)c1ccc(OCC(=O)Nc2cc(S(=O)(=O)N3CCCCC3)ccc2OC)cc1
11%	Cc1ccc(CCNC(=O)CCn2nc(-c3ccc(Cl)cc3)ccc2=O)cc1
-12%	CCOc1ccc(S(=O)(=O)N(C)CC(=O)N2CCCC2)cc1
-2%	Nc1cc(S(=O)(=O)c2ccc(O)c(N)c2)ccc1O
2%&-20%	O=C1NC(NS(=O)(=O)c2ccccc2)(C(F)(F)F)C(=O)N1CCc1ccccc1 (stereo not drawn)
13%	CSc1nc(N2CCOCC2)c2c3c(sc2n1)CCC3
2%	COc1ccc(N2CCN(CC(=O)c3c[nH]c4ccccc34)CC2)cc1
5%	COc1ccc(N2CCN(C(=O)C3CCCN(S(=O)(=O)c4c(C)noc4C)C3)CC2)cc1 (stereo not drawn)
-3%	COc1ccc(S(=O)(=O)NCCNC(=O)N2CCOCC2)cc1
-2%	CC(CCc1ccccc1)NC(=O)C(=O)NCCO (stereo not drawn)
5%	CC(OC(=O)Cn1[nH]c(=O)c2ccccc2c1=O)C(=O)Nc1ccc(F)cc1Cl (stereo not drawn)
7%	CN1CCN(C(=O)c2ccccc2-c2ccccc2C(=O)O)CC1
-1%	COc1cc(/C=C/C(=O)OCC(=O)NCCC2=CCCCC2)cc(OC)c1OC
-5%	O=C(c1ccc(Oc2ccc(Cl)cc2)c([N+](=O)[O-])c1)N1CCCC1
9%	COc1ccc(-c2nc3n(c2C)Cc2ccccc2-3)cc1
23%	CCOc1ccc(NS(=O)(=O)c2ccc(NS(=O)(=O)c3ccccc3)cc2)cc1
15%	CCn1c(-c2cc(Cl)ccc2OC)n[nH]c1=S
?	Cc1ccc(C)c(S(=O)(=O)N2CCN(C(=O)CSc3ccccc3)CC2)c1
-8%	C/C(=N\NC(=O)c1ccc(F)cc1)c1ccccn1
-18%	CC(Oc1ccc2c3c(c(=O)oc2c1)CCCC3)C(=O)NCc1ccccn1 (stereo not drawn)
?	CCCCc1nc2cc(C(=O)N3CCCCC3C(=O)OC)ccc2o1 (stereo not drawn)
-13%	Cc1cc(C)c(NC(=O)CSC2=Nc3ccccc3C3=NC(CC(=O)NCc4cccs4)C(=O)N23)c(C)c1 (stereo not drawn)
-23%	Cc1ccccc1NC(=O)C1(NC(=O)c2cccc(N3C(=O)CSC3c3ccccc3)c2)CCCCC1 (stereo not drawn)
4%	COc1ccc(Nc2ncnc3c2cnn3-c2ccc(C)cc2C)cc1
-21%	CCCN1CNc2c(c(=O)[nH]c(=S)n2CCc2cccc(OC)c2OC)C1
3%	CCC(C)NC(=O)CSc1nc2ccccc2c(=O)n1CCCC(=O)NCC1CCCO1 (stereo not drawn)
3%	CC(C)(C)c1ccc(OCCC(=O)NNC(=O)c2ccncc2)cc1
15%	COc1ccc(CCN2CC(C(=O)OCC(=O)Nc3c(C)nn(-c4ccccc4)c3C)CC2=O)cc1OC (stereo not drawn)
-6%	CN(CCCC(=O)Nc1nccs1)S(=O)(=O)c1ccc(Cl)cc1
17%	OCC1(CCCc2ccccc2)CCN(Cc2ccc(F)cc2)CC1
14%	COc1ccc(NS(=O)(=O)c2cc(NC(=O)CNC(=O)c3cccc(OC)c3)ccc2C)cc1
2%	CC(C)n1cnnc1SCC(=O)NNC(=O)COc1ccc(Cl)cc1
-10%	O=C(NCCCN1CCOCC1)C1CCC(=O)N1C1CCCCC1 (stereo not drawn)
-1%	O=C(O)c1ccc(N/N=C/c2ccc(-c3ccc(Cl)cc3Cl)o2)cc1
-3%	Cc1cc(=O)[nH]c(SCC(=O)Nc2ccc(S(=O)(=O)N3CCCCC3)cc2)n1
-1%	Cc1cc2cc(C)c3nnc(SCc4ccccn4)n3c2cc1C
-8%	CCCn1c(C)cc(/C=C(\C#N)C(=O)OCC(=O)Nc2ccc(OC)c(Cl)c2)c1C
-17%	Cc1nc(NC(=O)CSc2nc(N)cc(N)n2)sc1C
4%	O=C(CN(c1cc(Cl)ccc1Cl)S(=O)(=O)c1ccccc1)N1CCOCC1

Three records picked at random from the list so far, as already listed:
VDR inh	molecule
15%	COc1ccc(CCN2CC(C(=O)OCC(=O)Nc3c(C)nn(-c4ccccc4)c3C)CC2=O)cc1OC (stereo not drawn)
-1%	Cc1cc2cc(C)c3nnc(SCc4ccccn4)n3c2cc1C
14%	COc1ccc(NS(=O)(=O)c2cc(NC(=O)CNC(=O)c3cccc(OC)c3)ccc2C)cc1

An excerpt of these results, with each value named:
SMILES: CCC(C)NC(=O)CSc1nc2ccccc2c(=O)n1CCCC(=O)NCC1CCCO1 (stereo not drawn)
  VDR inh: 3%
SMILES: OCC1(CCCc2ccccc2)CCN(Cc2ccc(F)cc2)CC1
  VDR inh: 17%
SMILES: Cc1ccc(C)c(S(=O)(=O)N2CCN(C(=O)CSc3ccccc3)CC2)c1
  VDR inh: ?
SMILES: O=C(c1ccc(Oc2ccc(Cl)cc2)c([N+](=O)[O-])c1)N1CCCC1
  VDR inh: -5%

Going on with the list:
VDR inh	molecule
15%	O=C(O)c1cccc(-n2cccc2/C=C2/NC(=O)N(Cc3ccccc3F)C2=O)c1
?	O=C1c2ccccc2NC(c2ccc(-c3cccs3)o2)N1O (stereo not drawn)
-1%	N/C(=N\OC(=O)COc1ccc(Br)cc1)c1cccc([N+](=O)[O-])c1
-8%	CCOC(=O)COc1ccc(S(=O)(=O)Nc2ccc3c(c2)OCO3)cc1
10%	O=S(=O)(NCc1cccc(C(F)(F)F)c1)NCc1ccccc1F
8%	Cc1ccc(OCC(=O)N(Cc2ccc(Cl)cc2)CC2CCCO2)cc1C (stereo not drawn)
2%	COc1ccc(-c2noc(COc3ccc4c(c3)OCO4)n2)cc1OC
10%	COc1ccc(C(=O)N(C)Cc2ccon2)cc1OC1CCN(C(C)C)CC1
-8%	c1ccc(-c2cnc(CN3CCN(c4ccccc4)CC3)o2)cc1
7%	Nc1c(C(=O)NC2CCCCC2)nsc1C(=O)OCC(=O)NC1CCCCC1
-14%	CCOc1ccc(/C=C/C(=O)OCC(=O)c2ccccc2OC)cc1OC
29%	CCc1ccc(N/C(SC)=C(/C#N)C(N)=O)cc1
4%	CC(C)Oc1ccc(C2CC(=O)NC2=O)cc1 (stereo not drawn)
-3%	COc1ccc(CCNC(=O)Cn2c(-c3ccc(F)cc3)cc(C(C)=O)c2C)cc1OC
-5%	CC(OC(=O)CN1C(=O)COc2ccccc21)C(=O)NCc1ccc(F)cc1 (stereo not drawn)
5%	CCC(C)(C(=O)NC1CCCCC1)N(Cc1ccco1)C(=O)c1ccc2c(c1)OCO2 (stereo not drawn)
-11%	COCCN1CCN(C(=O)C2CCC(=O)N(Cc3ccccc3OC)C2)CC1 (stereo not drawn)
-1%	COc1ccc(Cn2c(=O)[nH]c3cc(C(=O)NCCCN4CCCCCC4)ccc3c2=O)cc1
-24%	O=C(O)/C=C/C(=O)Nc1ccccc1SC(F)(F)C(F)(F)C(F)(F)F
6%	Cc1csc(NC(=O)CSc2nnc(-c3cc(C)on3)o2)n1
-2%	Cc1cc2c(OCC(CNC(C)(C)C)OC(=O)c3ccccc3)cccc2[nH]1 (stereo not drawn)
6%	COC(=O)c1ccc(NC(=S)NN2CCCCC2c2cccnc2)cc1 (stereo not drawn)
-9%	CCOC(=O)c1ccc(S(=O)(=O)N2CCN(C(=O)c3ccccn3)CC2)cc1
0%	COC(=O)CSc1nc2sc3c(c2c(=O)n1-c1ccccc1C)CC(C)(C)OC3
0%	CC1(C)CC(=O)c2cnc(NC(=O)CSC(=S)N3CCCCC3)nc2C1
-1%	Cc1ccc(C2CCN(C(=O)c3cnn(-c4cccc(Cl)c4)c3C3CCN(C(=O)OC(C)(C)C)CC3)C2)cc1 (stereo not drawn)
-22%	COC(=O)c1c(NC(=O)c2cccnc2)sc(C(=O)N(C)C)c1C
2%	CC1CCN(S(=O)(=O)c2ccc3[nH]c(=O)cc(C(=O)O)c3c2)CC1
2%	CC(C)(C)OC(=O)C[C@H]1C/C=C\C[C@@H](CC(=O)N(CCO)Cc2ccccc2)C(=O)N[C@H](C(C)(C)C)COC1=O
-19%	COc1cccc(C2Cc3ccccc3C(=O)O2)c1 (stereo not drawn)
-7%	O=C1N(Cc2ccccc2)c2ccc(Cl)cc2C1(O)c1c[nH]c2ccccc12 (stereo not drawn)
-8%	CCOC(=O)C(=CNc1nc(-c2ccccc2)c(C(=O)Nc2ccc(-c3ccccc3)cc2)s1)C(=O)OCC
15%	CCOc1ccc(-n2cc(-c3ccccc3)c3c(N4CCN(c5ccccc5OC)CC4)ncnc32)cc1
37%[activator]	COc1ccccc1NC(=O)Nc1nc(CC(=O)N2CCN(c3ccccc3F)CC2)cs1
8%	Cc1oc(-c2cccs2)nc1CNC[C@H]1O[C@@H](n2cnc(C(N)=O)n2)[C@H](O)[C@@H]1O
50µM*	Cc1ccc(-n2nnnc2-c2cnoc2-c2cccc(F)c2)cc1
?	Cc1nn(C)c(C(=O)Nc2ccc(Br)cc2F)c1Br
-14%	O=C(CCCN1C(=O)CCC1=O)Nc1ccc(Cl)c(C(F)(F)F)c1
-16%	CC(C)n1cnc2cc(NCc3nc4ccccc4n3C)ccc21
5%	CC(C)Oc1cccc(C(=O)C2CCCN(C(=O)c3ccsc3)C2)c1 (stereo not drawn)
13%	CCOc1cc(NC(=O)CCl)c(OCC)cc1NC(C)=O
-7%	CC(C)CN1CCCC2(CCN(C(=O)c3cccc(F)c3)CC2)C1
19%	COc1cc(NC(=O)C2=C(C)OCCS2)c(Cl)cc1C(=O)NCCN(C)C
-5%	C#CCN(C)CC/C=C1\c2ccccc2CSc2ccccc21
5%	CN1C(=O)C(O)(C2OC(C)(C)CCC2=O)c2ccccc21 (stereo not drawn)
7%	COc1cccc(NC(=O)c2ccc(-c3nc(COc4ccc(C)cc4)c(C)o3)cc2)c1
-10%	COc1ccc(CNC(=O)c2coc(=O)c3ccccc23)c(OC)c1
-4%	O=C(CCn1nc(-c2ccccc2)c2ccccc2c1=O)NN1CCOCC1
3%	CC(Sc1nc2ccccc2n1C)C(=O)Nc1ccc(N2CCOCC2)cc1 (stereo not drawn)
?	O=C1C(=O)N(CCN2CCOCC2)C(c2ccc([N+](=O)[O-])cc2)/C1=C(/O)c1ccc2c(c1)OCO2 (stereo not drawn)
3%	COc1ccc(OCCn2ccnc2)cc1
5%	O=C(Cn1cnc2onc(-c3ccc(F)cc3)c2c1=O)N1CCN(c2ccccc2F)CC1
10%	Cc1ccc(NC(=O)Cc2coc3c(C)c(C)ccc23)c(C)c1
5%	O=C(Cc1ccc(F)cc1)NCCc1csc2nc(-c3ccc(Cl)cc3)nn12
-20%	CC(C)c1ccc(/C=N/NC(=O)c2ccccc2Cl)cc1
-13%	O=C(c1cccc(C(F)(F)F)c1)N1CCOC12CCN(c1ncc(C(F)(F)F)cc1Cl)CC2
5%	CCOC(=O)c1c(N)sc(C(=O)N2CCCCC2)c1C
10%	O=C(Nc1ccc(C(=O)N2CCCCC2)cc1)c1ccccc1
11%	COc1ccc(Cl)cc1NC(=O)CN(C)C(=O)C1CC(=O)N(Cc2ccc(C)cc2)C1 (stereo not drawn)

An excerpt of the results above, for reference:
VDR inh	molecule
-7%	O=C1N(Cc2ccccc2)c2ccc(Cl)cc2C1(O)c1c[nH]c2ccccc12 (stereo not drawn)
-8%	CCOC(=O)C(=CNc1nc(-c2ccccc2)c(C(=O)Nc2ccc(-c3ccccc3)cc2)s1)C(=O)OCC

Not all compounds are listed; rates above refer to the full screens.
